Compound activity (PubChem)
GIV-Gai inh = inhibitors of GIV peptide binding to Galpha-i3, primary screen, biochemical, fluorescence polarization, FITC-GIV GBA peptide, rat Galphai3. hit rate 0.42% among 210,000. percent of control (FP), % (test concentration not listed). 90 min; stronger effect = lower value; scaled: aluminum fluoride 0%, vehicle 100%. AID 1224905, 2016. Guanine nucleotide-binding protein G(i) subunit alpha-3 (Rattus norvegicus), P08753;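 active = replicate mean at 85% of control or lower, very high polarization wells dropped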;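 also: wells of about 15 µL received 100 nL stock; the first replicate is given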
Target sequence (P08753 whole entry, looked up): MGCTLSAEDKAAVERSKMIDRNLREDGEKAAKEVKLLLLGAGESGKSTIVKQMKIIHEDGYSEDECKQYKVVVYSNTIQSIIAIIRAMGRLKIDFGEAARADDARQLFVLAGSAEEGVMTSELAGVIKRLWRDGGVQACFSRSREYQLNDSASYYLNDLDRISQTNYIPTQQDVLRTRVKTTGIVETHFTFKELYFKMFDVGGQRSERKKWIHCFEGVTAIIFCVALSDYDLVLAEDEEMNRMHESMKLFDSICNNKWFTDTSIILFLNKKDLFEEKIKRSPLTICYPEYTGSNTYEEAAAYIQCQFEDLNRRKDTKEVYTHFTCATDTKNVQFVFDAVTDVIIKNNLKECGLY
HCMV UL50-53 inh = inhibitors of HCMV UL50-UL53 interaction, biochemical, HTRF; HCMV UL50-UL53 nuclear egress complex (human cytomegalovirus); normalized percent inhibition; inhibition, % (no concentration beside the values); hit rate 0.15% among 190,000; AID 1918969, 2023;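 active = both replicates at 50% or more, plus weaker picks with an unusually low signal ratio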;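 also: stock transfer was 100 nL into about 20 µL; 0% = negative control wells and 100% = wells with untagged competitor protein; inactives centre near -12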
Sa growth inh = S. aureus growth inhibition at 42 and 30 °C, primary screen, LtaS inhibitor project, RN4220, two temperatures; OD600, 20 h, 42 °C; stronger effect = lower value; relative growth, % (test concentration not listed); hit rate 0.53% among 170,000; AID 720641, 2013;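 active = growth at 42 °C up to 50% and 20 or more points under that at 30 °C, or under 10% at both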;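 also: 300 nL library stock went into each well; scaled to the means of positive and negative controls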
Sa growth inh second temp = further read-out of Sa growth inh, marked with its call; relative growth, %; measured here: growth at 30 °C;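 optical density after 20 h as mean of two plates; 100% = untreated growth and lower means inhibition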
Starred values were filed as active, the others as inactive; x = not tested or not shown; & = joins results of further samples.

SMILES	GIV-Gai inh	HCMV UL50-53 inh	Sa growth inh	Sa growth inh second temp
COc1ccc(CN2CCN(c3cccc(C(F)(F)F)c3)CC2)cc1C	107	2	112	101
Cc1nn2c(nc(N3CCCC3)c3ccccc32)c1C=C1C(=O)N(C)C(=O)N(C)C1=O	x	-1	105	100
O=c1cc(C(F)(F)F)nc(-c2ccccn2)[nH]1	103	1	x	x
CCOc1ccc(NC(=O)Cn2cc(C(=O)c3ccc(C)c(C)c3)c(=O)c3cc4c(cc32)OCCO4)cc1	95	-5	93	92
COc1ccc(-c2cccc(NS(=O)(=O)c3cc(C)ccc3OC)c2)nn1	110	x	100	97
CCOc1cccc2sc(=NC(=O)c3ccc(S(=O)(=O)N4CCOCC4)cc3)n(C)c12	100	8	77	94
Cc1cc(C)cc(NC(=O)COC(=O)c2ccc(S(=O)(=O)N3CCOCC3)cc2)c1	x	-32	106	91
CCOC(=O)N1CCN(C(=O)CC2c3ccccc3Oc3ccccc32)CC1	100	-5	101	99
O=C1N/C(=N/c2ccccn2)SC1Cc1cccc(Cl)c1 (stereo unspecified)	99	-6	x	x
Cc1ccc(S(=O)(=O)CCN(C)Cc2cccnc2)cc1	105	4	105	93
COc1ccc2nc3oc(C(=O)NCCC4=CCCCC4)cc3cc2c1	106	x	108	92
NS(=O)(=O)c1ccc(-c2cc(C(F)(F)F)ccn2)s1	97	-38	102	75
CCCCn1c(=O)c(C(=O)N/N=C/c2cccnc2)c(O)c2ccccc21	98	-2	93	90
COc1cccc(CNC(=O)c2c(C)nn(-c3ccc(F)cc3)c2-n2cccc2)c1	104	x	98	95
O=S(=O)(Nc1ccccn1)c1ccc(-n2cccn2)cc1	110	-32	101	81
CCOc1cc(/C=C2\SC(=O)N(Cc3ccc(F)cc3)C2=O)ccc1O	200	x	94	80
O=C(c1ccccc1)c1nccc2ccccc12	x	-71	101	78
CCOc1ccccc1N1CCN(Cc2cnc(-c3ccccc3)[nH]2)CC1	103	-3	93	91
CC(/C=C(\C#N)S(=O)(=O)c1ccccc1)c1ccccc1 (stereo unspecified)	x	5	102	97
CC/C(Cc1ccccc1)=N\NC(=O)c1ccc(N)cc1	101	0	113	116

Grouped by structure: the compounds so far containing fluorine
SMILES	GIV-Gai inh	HCMV UL50-53 inh	Sa growth inh	Sa growth inh second temp
COc1ccc(CN2CCN(c3cccc(C(F)(F)F)c3)CC2)cc1C	107	2	112	101
O=c1cc(C(F)(F)F)nc(-c2ccccn2)[nH]1	103	1	x	x
NS(=O)(=O)c1ccc(-c2cc(C(F)(F)F)ccn2)s1	97	-38	102	75
COc1cccc(CNC(=O)c2c(C)nn(-c3ccc(F)cc3)c2-n2cccc2)c1	104	x	98	95
CCOc1cc(/C=C2\SC(=O)N(Cc3ccc(F)cc3)C2=O)ccc1O	200	x	94	80

Next section
SMILES	GIV-Gai inh	HCMV UL50-53 inh	Sa growth inh	Sa growth inh second temp
CC(=O)Nc1cccc(NC(=O)Cn2nc(-c3ccco3)ccc2=O)c1	99	-89	106	89
Cc1cc(C)c(NC(=O)c2cc(S(=O)(=O)N3CCCC3)cn2C)c(C)c1	104	x	103	87
Cc1ccc(/C=C2\SC(=S)N(CCC(=O)Nc3c(C)n(C)n(-c4ccccc4)c3=O)C2=O)cc1	104	-24	x	x
Clc1ccc(Sc2c(-c3ccc(Br)cc3)nc3ccccn23)cc1	102	-30	x	x
CNCC(O)COC1CCCCC1 (stereo unspecified)	107	-5	97	85
CCC(C)(C)c1nnc(N)s1	98	-24	89	86
OCCSc1nc(-c2cccnc2)nc2ccccc12	x	-41	88	58
CC(=O)Oc1cccc(-c2nc3ccccc3c(=O)o2)c1	104	-15	93	81
COc1ccccc1N1CCN(C(=O)CCn2nc(C)c(S(=O)(=O)N3CCCC3)c2C)CC1	102	x	96	91
O=C(COC(=O)/C=C/c1ccc(F)cc1)Nc1ccc(Cl)cn1	x	-16	99	86
O=C(O)CC1(CC(=O)Nc2ccc3c(c2)C(=O)OC3)CCCCC1	97	-6	90	88
CS(=O)(=O)N1CCN(c2cccc(C(F)(F)F)c2)CC1	97	11	94	106
Cc1cccc(C(=O)NCC(c2ccccc2)c2c[nH]c3ccccc23)c1 (stereo unspecified)	103	0	x	x
CC(C)CN(CC(C)C)C(=O)CSc1nn2c(=O)c(C(C)(C)C)nnc2s1	x	2	97	93
Cc1ccc(-c2noc(CCCC(=O)NCc3ccco3)n2)cc1	100	-12	106	84
COc1ccccc1N1CCN(c2ncnc3c2cnn3-c2ccc(C)c(Cl)c2)CC1	101	-14	93	90
COc1ccccc1C(=O)NCCc1csc(-c2ccccc2)n1	101	-30	x	x
Cc1ccc(S(=O)(=O)c2nc(-c3cccc(C)c3)oc2N2CCN(c3ccccc3)CC2)cc1	100	8	95	97
Cc1ccc2c(c1)c1c(n2CC(O)CN2C(=O)CNC2=O)C(=O)CCC1 (stereo unspecified)	101	x	102	70
O=C(O)C12CC3CCC(CC(C3)C1)C2	112	1	109	96
O=C(Nc1ccc2ccccc2n1)C1CCN(c2nccc(C(F)(F)F)n2)CC1	102	-7	100	97
Cc1ccc(N2CCN(CC(O)Cn3c(C)c(C)c4ccccc43)CC2)cc1 (stereo unspecified)	102	-11	x	x
COc1ccc(OC)c(S(=O)(=O)N(C(=O)c2ccc(C)cc2)c2ccc3oc(=O)sc3c2)c1	102	-20	x	x
CCc1ccc(CN(Cc2cn[nH]c2-c2ccc(OC)cc2)C(=O)NCc2ccc(C)cc2)cc1	101	x	100	89
OCC1O[C@H]([S-])[C@@H](O)C(O)[C@@H]1O.[Au+] (stereo partly specified)	65*	-111	x	x
O=C(Cn1c(=O)n(Cc2nc(-c3ccccc3)no2)c(=O)c2cc3c(cc21)OCO3)Nc1ccccc1	105	x	96	95
Cc1ccc(Cl)cc1NC(=O)CCCN1C(=O)C(c2ccccc2)Oc2cccnc21 (stereo unspecified)	102	-103	x	x
O=C(CN1C(=O)CSc2ncccc21)N1CCN(c2ccccc2)CC1	111	4	111	97
COc1cc(OC)c(NC(=O)c2nnn(Cc3ccc(C)cc3)c2N)cc1Cl	102	-23	97	93
O=C(CN1C(=O)COc2ccc(S(=O)(=O)N3CCCCCC3)cc21)NCCc1ccccc1	104	x	113	88
CC1CCCCC1NC(=S)NN (stereo unspecified)	x	-8	115	86
COc1ccc2cc3c(N)nn(C(=O)CCS(=O)(=O)c4ccccc4)c3nc2c1	103&100	-16&-34	93	93
O=C(CCC(=O)c1ccc(Cl)s1)NC1CCCC1	x	-11	102	91
CNC(=O)c1c(NC(=O)CS(=O)(=O)c2ccc(F)cc2)sc(C)c1C	105	-38	86	91
COc1ccc(CNC(=O)CCc2cn(C)c3ccccc23)cc1	105&111	-12	109	84
COc1cc(OC)c(NCC(O)Cn2nnnc2-c2ccccc2)cc1Cl (stereo unspecified)	98	-17	x	x
CN(Cc1ccccc1)C(=O)CN(C)S(=O)(=O)c1ccc2[nH]c3c(c2c1)CCCC3	99	x	103	70
COc1ccc(CC(=O)Nc2cc3[nH]c(=O)[nH]c3cc2C)cc1OC	107	-30	97	88
COc1ccc(C(CNC(=O)COc2ccccc2OC)c2c[nH]c3ccccc23)cc1 (stereo unspecified)	103	0	x	x
CCc1ccc(NC(=O)c2cc(C(C)C)on2)cc1	102	-4	87	87
NC(=O)C1CCCN(C(=O)Nc2cccc(C(F)(F)F)c2)C1 (stereo unspecified)	104	-27	97	97
O=C(COC(=O)c1ccc2c(c1)OCO2)NC12CC3CC(CC(C3)C1)C2	x	1	80	91
CCOc1ccc(C(=O)Oc2cc(N)n(S(=O)(=O)c3ccc(F)cc3)n2)cc1	101	-26	x	x
CCn1ccc2cc(S(=O)(=O)N3CCCN(C(=O)Nc4cc(OC)ccc4OC)CC3)ccc21	101	11	x	x
Cc1cn(-c2ccc(Br)cc2)[nH]c1=O	102	-28	101	99
O=C(NCCO)c1ccc(-c2nnc(Nc3ccc(OC(F)(F)Cl)cc3)c3ccccc23)cc1	109	-15	112	103
Cn1ccnc1P(=O)(O)c1ccccc1	x	7	91	97
Cn1nnnc1SCCCNCc1cc(Cl)ccc1OCc1ccccc1F	99	-37	102	68
COc1ccc(CCC(=O)OCN2C(=O)c3ccccc3C2=O)cc1	x	-29	94	97
CC(C)(C)SCCNc1nc(Oc2ccc(F)cc2)nc(Oc2ccc(F)cc2)n1	105	7	107	98
Cc1c(N=C=S)c(=O)n(-c2ccccc2)n1C	x	-30	103	87
NC(=O)c1c(NC(=O)CN2C(=O)S/C(=C\c3ccccc3Cl)C2=O)sc2c1CCCC2	105	20	x	x
Cc1ccc2nc(SCC(=O)N3CC4(C)CC3CC(C)(C)C4)[nH]c2c1 (stereo unspecified)	x	-4	112	107
COc1ccccc1NC(=O)Nc1ccccc1OCc1cc(=O)n2c(ncn2C(C)C)n1	102	1	x	x
Cc1nn2c(=O)cc(COC(=O)c3cccc(NC(=O)c4ccc(F)cc4)c3)nc2s1	106	x	98	87
COC(=O)CC1=CC(SCC(=O)NC2CCc3ccccc32)=Nc2ccccc2N1 (stereo unspecified)	103	-22	x	x
O=S(=O)(c1ccc(-c2cnco2)cc1)N1CCN(C2c3ccccc3-c3ccccc32)CC1	110	-4	100	89
O=C(Nc1ccccc1C(=O)O)c1ccc(N2C(=O)c3cccc4c([N+](=O)[O-])ccc(c34)C2=O)cc1	111	-18	x	x
COC(=O)COc1ccc(-c2nn(C)c(=O)c3ccccc23)cc1	101	2	92	89
CCOC(=O)CSc1nc2sc3c(c2c(=O)n1Cc1ccccc1)CC(C(C)C)OC3 (stereo unspecified)	106	-28	95	93

Next section:
SMILES	GIV-Gai inh	HCMV UL50-53 inh	Sa growth inh	Sa growth inh second temp
CC(C)n1cnc(S(=O)(=O)N2CCCC(C(=O)N3CCOCC3)C2)c1 (stereo unspecified)	102	-22	x	x
COc1ccccc1CNC(=O)C1CCN(S(=O)(=O)c2ccc3c(ccn3C)c2)CC1	109	x	111	101
CCOc1ccc(-c2nnc(SCC(=O)N3c4ccccc4CC3C)o2)cc1 (stereo unspecified)	107	-23	x	x
Nc1nccc(-c2cccc(Cl)c2F)n1	102	2	110	94
CC1CCCC(NC(=O)NC(=O)COc2ccccc2C(N)=O)C1C (stereo unspecified)	x	-17	95	96
Cc1cc(C)cc(NC(=O)CCC(=O)N2CCSc3ccccc32)c1	101	x	96	115
O=C(NCCN1CCCC1)c1cc2ccc3cccnc3c2[nH]1	103	-30	92	77
O=C1CCCc2cc(S(=O)(=O)NCCC3=CCCCC3)ccc2N1	118	4	x	x
CC(C)(CC(=O)O)CC(=O)Nc1ccc(C#N)cc1	101	-26	96	85
COC(=O)c1sc(-c2ccccc2)cc1NC(=O)Nc1ccc(F)cc1	107	-11	106	83
COC(=O)c1cc(COC(=O)/C=C/c2c(C)nn(-c3ccccc3)c2C)oc1C	x	-3	93	97
O=C(NCc1ccc2c(c1)OCO2)c1ccc2c(=O)n(Cc3ccccc3)c(=S)[nH]c2c1	103	x	101	75
COc1cccc(NC(=O)Cn2c(=O)cc(C)c3c(C)nn(-c4cccc(F)c4)c32)c1	95	x	93	86
COc1ccc(NC(=O)c2ccccc2-c2nc(-c3ccccc3)no2)cc1OC	94	-13	x	x
COc1cc(-c2[nH]nc3c2C(c2ccccc2[N+](=O)[O-])C(C#N)=C(N)O3)cc(OC)c1OC (stereo unspecified)	101	-27	x	x
CCOc1ccc(NC(=O)N2CCCC(c3cccc(C(=O)NCc4ccccc4)c3)C2)cc1 (stereo unspecified)	107	-2	x	x
CC(C)(C)c1ccc(C(=O)On2c(C3CCCCC3)nc3ccccc3c2=O)cc1	106	-8	x	x
COC(=O)C(Cc1ccccc1)NC(=O)C12CC3CC(CC(C3)C1)C2 (stereo unspecified)	x	-4	98	90
CCn1nccc1C1CCCN1C(=O)c1c(Cl)cnn1CC (stereo unspecified)	108	-25	x	x
Nc1ccc(-n2cnnc2)cc1	101	-47	84	86

Next part, overlapping the part above by two compounds.
SMILES	GIV-Gai inh	HCMV UL50-53 inh	Sa growth inh	Sa growth inh second temp
CCn1nccc1C1CCCN1C(=O)c1c(Cl)cnn1CC (stereo unspecified)	108	-25	x	x
Nc1ccc(-n2cnnc2)cc1	101	-47	84	86
Cc1nn(-c2ccccc2)c(C)c1CN(C)C(=O)C1COc2ccccc2O1 (stereo unspecified)	x	-19	93	82
CC1CCN(S(=O)(=O)c2ccc3c(ccc(=O)n3CC(=O)Nc3ccc(C(C)C)cc3)c2)CC1	101	x	104	81
CCOCN(C(=O)CSc1nc2ccccc2[nH]1)c1c(C)cccc1CC	109	-7	93	108
COC(=O)c1cccc(CSc2nnc(-c3ccccc3OC)n2N)c1	x	-19	92	86
